High-throughput results as filed in PubChem BioAssay.
Ecoli rRNA inh – inhibits bacterial ribosomal RNA function over humanized ribosomes. E. coli WT GFP vs humanized-ribosome RFP mutants, fluorescence, 24 h; active compounds read low; DMSO median 0, no signal -100. GFP signal change (wild-type ribosome), % (no concentration beside the values). 350,000 tested, 1.6% active. AID 720706;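 active means significant combined selectivity score with lowered wild-type GFP, culture density cut under 30%, mutant RFP and density less affected; inactive means any of these conditions unmet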; further: one replicate is shown; some compounds called inactive have numbers as strong as hits
ALR inh – inhibitors of human sulfhydryl oxidase ALR; 290,000 tested, 3.8% active; AID 485317; P55789; purified ALR, DTT oxidation, H2O2 HRP-luminol luminescence; inhibition, % (concentration not given with the values);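 active means mean and each replicate at 75% or more; inconclusive means only one of the two met; inactive means neither met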;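 further: stock transfer was 7.5 nL into about 7.5 µL; 0% = neutral wells and 100% = wells with inactivated enzyme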
Target sequence (P55789 whole entry, looked up): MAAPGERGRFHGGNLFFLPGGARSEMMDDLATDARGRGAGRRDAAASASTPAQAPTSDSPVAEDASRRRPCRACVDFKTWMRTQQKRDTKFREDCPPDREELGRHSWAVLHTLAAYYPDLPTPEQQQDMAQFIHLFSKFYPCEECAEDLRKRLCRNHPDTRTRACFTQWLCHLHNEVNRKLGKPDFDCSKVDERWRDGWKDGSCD
MLL AF4-AF9 inh – MLL-AF4/AF9 protein interaction inhibition | P42568 | AlphaScreen, biotin-AF4 peptide binding to FLAG-AF9 | inhibition, % at 10 µM | 350,000 tested, 0.47% active;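 active means every replicate reaching a set inhibition limit, whatever the replicate mean, cut at about 25% in these data; inconclusive means mean inhibition reaches that limit but some replicates miss it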;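 further: 0% = plate neutral control median and 100% = total signal loss; the record names both 10 and 1 µM as test concentration; the first replicate is given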
Target sequence (P42568 whole entry, looked up): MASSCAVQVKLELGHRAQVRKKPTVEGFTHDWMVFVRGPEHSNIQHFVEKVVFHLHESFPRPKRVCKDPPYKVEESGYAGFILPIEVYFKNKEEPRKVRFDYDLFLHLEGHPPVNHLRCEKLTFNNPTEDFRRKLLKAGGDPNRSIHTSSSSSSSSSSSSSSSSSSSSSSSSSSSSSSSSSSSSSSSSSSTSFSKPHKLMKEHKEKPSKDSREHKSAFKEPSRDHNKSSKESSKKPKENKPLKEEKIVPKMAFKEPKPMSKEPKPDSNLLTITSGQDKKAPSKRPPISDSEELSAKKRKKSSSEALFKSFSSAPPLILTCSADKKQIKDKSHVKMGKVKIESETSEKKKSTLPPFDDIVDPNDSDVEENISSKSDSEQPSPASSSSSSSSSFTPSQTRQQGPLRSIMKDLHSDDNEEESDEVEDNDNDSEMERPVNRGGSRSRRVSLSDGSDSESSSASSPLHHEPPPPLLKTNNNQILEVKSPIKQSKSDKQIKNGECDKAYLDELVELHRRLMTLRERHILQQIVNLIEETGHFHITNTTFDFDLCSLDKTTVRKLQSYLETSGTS
Calb FLC – C. albicans growth modulation with fluconazole. C. albicans CaCi-2 (fluconazole-resistant clinical isolate) + fluconazole, Alamar Blue growth, 48 h. 300,000 tested, 0.57% active. AID 1979. growth inhibition, % (concentration not given with the values);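 active means most replicates above 75%; inconclusive means exactly half above 75%; inactive means most below 75%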;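 further: all wells also contain fluconazole at 8 µg/ml as a sub-toxic cotreatment; 0% = median of DMSO wells and 100% = median of geldanamycin control wells; wells of about 8 µL received 7.5 nL stock; the first replicate is given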
FGF22 binding – binders of recombinant human FGF22 by thermal shift. Q9HCT0. calls only at 9.99 µM. AID 651658. SYPRO orange fluorescence; percent of sucrose octasulfate shift, DMSO zero. 340,000 tested, 1.5% active;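 active means melting point raised past a set limit in the mean and every replicate; inconclusive means no clear call; three in four hits are not shown here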
Target sequence (Q9HCT0 whole entry, looked up): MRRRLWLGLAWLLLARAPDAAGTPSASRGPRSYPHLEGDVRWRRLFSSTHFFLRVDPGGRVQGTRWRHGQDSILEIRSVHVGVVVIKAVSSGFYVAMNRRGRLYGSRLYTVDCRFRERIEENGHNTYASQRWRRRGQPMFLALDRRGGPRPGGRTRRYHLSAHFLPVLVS
Beta cell apopt – blocks beta cell apoptosis; protection from apoptosis, % (concentration not given with the values); INS-1E cytokine-induced death, ATP luminescence, 48 h; percent of positive-control rescue, neutral wells zero; AID 435005; 300,000 tested, 0.8% active;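 active means all replicates at 75% or more, or half of them and the mean; inconclusive means half reach 75% but not the mean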;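 further: 0% = cytokine-treated negative control wells and 100% = positive control rescue; higher means more ATP so stronger rescue from cytokine killing; wells of about 40 µL received 100 nL stock; the first replicate is given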
T cruzi inh – T. cruzi replication inhibition | T. cruzi beta-gal in NIH3T3, luminescence, 90 h | inhibition, % (no concentration beside the values) | 300,000 tested, 1.4% active;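 active means mean inhibition across valid replicates above about 55%, limit read from the data; inconclusive means mean below that limit but half or more replicates reach it; inactive means mean below it, under half of replicates reach it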;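 further: signal also drops with host cell toxicity which is not excluded here; 0% = plate median of DMSO wells and 100% = zero luminescence signal; higher percent means less beta-gal luminescence so fewer parasites; stock transfer was 50 nL into about 50 µL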
RanGTP-Impb inh – inhibitors of RanGTP-importin-beta interaction, primary screen, biochemical, FRET, CFP-Ran, YFP-importin-beta, homogeneous. 300,000 tested, 1.1% active. inhibition, % (concentration not given with the values). cell-free CFP-Ran/YFP-importin-beta FRET ratio;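 active means most replicates above 15%; inconclusive means exactly half above 15%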;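 further: 0% = DMSO wells and 100% = Ran loaded with GDP instead of GTP; wells of about 40 µL received 100 nL stock; the first replicate is given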
Ecoli rRNA inh OD600 – recorded beside Ecoli rRNA inh, whose call it bears; OD600 change, %; measured here: OD600 growth;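 optical density of the mix in the first replicate; 0 = DMSO median and -100 = no signal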
Ecoli rRNA inh RFP – recorded beside Ecoli rRNA inh, whose call it bears; RFP signal change, %; measured here: RFP humanized mutant strains;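 first replicate; 0 = DMSO median and -100 = no signal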
Starred values were filed as active, the others as inactive; i = inactive; ? = inconclusive; . = not tested or not shown; & = joins results of further samples. Not all compounds are listed. The share of hits here may be higher or lower than overall.

SMILES | Ecoli rRNA inh | Ecoli rRNA inh OD600 | Ecoli rRNA inh RFP | ALR inh | MLL AF4-AF9 inh | Calb FLC | FGF22 binding | Beta cell apopt | T cruzi inh | RanGTP-Impb inh
C/C(=N/NC(=O)c1cccs1)c1c(C)[nH]n(-c2nc3ccccc3s2)c1=O | -46 | -69 | -15 | 45 | 2.1 | ? | i | 79* | 0 | -6.9
CCCOc1ccc(N2C(=O)CC(N(Cc3ccc(OC)cc3)C(=S)Nc3ccccc3)C2=O)cc1 (stereo not drawn) | . | . | . | -2 | . | -5 | . | -9 | 27 | 5.1
Cc1c(N=Cc2cccnc2)c(=O)n(-c2ccccc2)n1C | . | . | . | ? | . | ? | . | -3 | -7 | -0.6
CNc1nc2c(c(=O)n(C)c(=O)n2C)n1Cc1ccccc1 | . | . | . | 17 | . | 5 | . | 13 | -23 | 2.7
COc1ccc2[nH]c3c(=O)n(N)c(=O)[nH]c3c2c1 | 7 | 11 | -1.5 | -2 | -2.4 | -14 | i | 4 | -3 | -2.4
OC(COc1ccc2cc(Br)ccc2c1)CN1CCCC1 (stereo not drawn) | -15 | 2 | 12 | 19 | 8.9 | 2 | i | 4 | 70* | 1.1
COc1ccc(C(=O)OCC(=O)Nc2ccc(F)cc2F)cc1OC | . | . | . | -2 | . | -10 | . | -2 | 12 | ?
O=C(COc1ccccc1O)Nc1ccc(Cl)cc1 | . | . | . | -6 | . | -22 | . | 8 | -19 | 9.4
O=C(NC(=O)c1ccccc1F)OCc1ccc(Cl)cc1Cl | -40* | -21* | -7.4* | 2 | -6.3 | 20 | i | -7 | -10 | 0.9
CC1CCCC(C)N1C(=O)c1ccc(S(=O)(=O)NCc2ccco2)cc1 (stereo not drawn) | 4 | -2 | -0.4 | 1 | 2.7 | 0 | i | 10 | 3 | ?
Cc1ccccc1-c1nnnn1C1CCS(=O)(=O)C1 (stereo not drawn) | 5 | 8 | 1.9 | 10 | -2.0 | -5 | i | 0 | -8 | 1.7
O=[N+]([O-])c1ccc2sc(SCc3nc4ccccn4c3Br)nc2c1 | . | . | . | -3 | . | 16 | . | -3 | -20 | -1.1
CC(=O)c1ccccc1NC(=O)C1CCCN(C(=O)c2ccc(Cl)cc2)C1 (stereo not drawn) | -10 | -21 | -4.1 | . | -3.1 | . | i | -1 | . | .
O=C(c1cc(-c2ccccc2)n[nH]1)N1CCc2c([nH]c3ccccc23)C1c1ccccn1 (stereo not drawn) | -13 | -14 | -1.0 | 0 | 3.4 | 98* | i | -2 | 29 | ?
Cc1ccc(-c2nn(Cc3ccccc3)cc2/C=C/C(=O)O)cc1 | . | . | . | 3 | . | 10 | . | 6 | 15 | -0.1
C/C(=N/NC(=O)c1cc(C)[nH]n1)c1ccncc1 | -13 | -25 | 3.3 | . | -2.5 | 29 | i | -5 | 9 | -1.2
CCOc1ccccc1CN1CCN(C2CCSCC2)CC1CCO (stereo not drawn) | 9 | 9 | 0.7 | 16 | -0.5 | -15 | i | 3 | 2 | -0.8
CCOC(=O)C(CCCCCOc1ccccc1[N+](=O)[O-])C(=O)OCC | . | . | . | 3 | . | 9 | . | 2 | -12 | -1.3
COCCCNC(=S)Nc1ccc(C)cc1[N+](=O)[O-] | 0 | 2 | -2.6 | . | 2.3 | -7 | i | -10 | -12 | -0.5
O=C(O)C1CCN(c2ncccn2)CC1 | . | . | . | -27 | . | 2 | . | -3 | -7 | -0.2
CCOC(=O)C1(Cc2ccccc2C(F)(F)F)CCN(C(C)CSC)CC1 (stereo not drawn) | -1 | 5 | -5.4 | . | -11 | 11 | i | -3 | 36 | 1.5
CC(=O)CSc1ccc(-c2nc3ccccc3[nH]2)cn1 | -24* | -2.6* | 10* | 61 | -3.2 | -1 | i | 79* | 5 | 1.7
COc1ccc(CCNC(=O)C2CCCN(c3ncnc4c3nc3n4CCCCC3)C2)c(OC)c1 (stereo not drawn) | -8 | -21 | 3.4 | -2 | -2.7 | 10 | i | 4 | 7 | 2.5
COc1ccc(S(=O)(=O)Nc2cccc3c2O[C@H](CN(C)S(=O)(=O)c2cccs2)[C@@H](C)CN([C@H](C)CO)C3=O)cc1 | 0&11 | -3&6 | -0.6&-0.4 | 2 | 3.7&1.9 | . | i | -15 | . | .
O=C(CSc1ccccc1)Nc1nnc(-c2ccco2)o1 | -5 | -11 | -3.5 | 2 | -0.3 | 15 | i | . | -5 | -4.0

Among those listed so far, five have an NH in an aromatic ring.
SMILES | Ecoli rRNA inh | Ecoli rRNA inh OD600 | Ecoli rRNA inh RFP | ALR inh | MLL AF4-AF9 inh | Calb FLC | FGF22 binding | Beta cell apopt | T cruzi inh | RanGTP-Impb inh
C/C(=N/NC(=O)c1cccs1)c1c(C)[nH]n(-c2nc3ccccc3s2)c1=O | -46 | -69 | -15 | 45 | 2.1 | ? | i | 79* | 0 | -6.9
COc1ccc2[nH]c3c(=O)n(N)c(=O)[nH]c3c2c1 | 7 | 11 | -1.5 | -2 | -2.4 | -14 | i | 4 | -3 | -2.4
O=C(c1cc(-c2ccccc2)n[nH]1)N1CCc2c([nH]c3ccccc23)C1c1ccccn1 (stereo not drawn) | -13 | -14 | -1.0 | 0 | 3.4 | 98* | i | -2 | 29 | ?
C/C(=N/NC(=O)c1cc(C)[nH]n1)c1ccncc1 | -13 | -25 | 3.3 | . | -2.5 | 29 | i | -5 | 9 | -1.2
CC(=O)CSc1ccc(-c2nc3ccccc3[nH]2)cn1 | -24* | -2.6* | 10* | 61 | -3.2 | -1 | i | 79* | 5 | 1.7

Remaining list, next part:
SMILES | Ecoli rRNA inh | Ecoli rRNA inh OD600 | Ecoli rRNA inh RFP | ALR inh | MLL AF4-AF9 inh | Calb FLC | FGF22 binding | Beta cell apopt | T cruzi inh | RanGTP-Impb inh
O=C(NCc1ccc(F)cc1)C1CCCN1C(=O)Nc1cccc(F)c1 (stereo not drawn) | 9 | 3 | -8.7 | -12 | 5.0 | 6 | i | . | -4 | -6.6
Cc1ccccc1C(=O)c1cccn1CC(=O)NCCC1=CCCCC1 | -13 | -32 | -10 | 2 | -0.1 | 3 | i | 1 | 3 | 0.5
Cc1ccc2nc(-c3ccc(NC(=O)CN4CCN(C(=O)c5ccco5)CC4)cc3)sc2c1 | . | . | . | -4 | . | 49 | . | . | -15 | -2.1
O=C(CSc1ncccn1)n1c2c(c3ccccc31)CCCC2 | -11 | -14 | 0.1 | -4 | 4.7 | -1 | i | 2 | 22 | 3.2
CCOc1ccccc1-n1nnnc1SCC(=O)O | 13 | 2 | -2.4 | -3 | -25 | -8 | i | 1 | 22 | -3.4
CCOc1ccccc1NC(=O)CSc1nc(=O)n(CCCN2CCOCC2)c2c1CCCC2 | -2 | 0 | -3.1 | -29 | -1.7 | -1 | . | 0 | 4 | 4.8
COc1cccc(N2CCN(C(=O)/C=C/c3ccco3)CC2)c1 | 2 | 1 | 0.1 | 52 | 0.7 | 32 | . | 5 | -8 | 3.0
O=S(=O)(c1ccccc1)N1CCN(S(=O)(=O)c2ccccc2)C1 | . | . | . | 3 | . | -3 | . | -7 | 9 | -1.3
O=C(CSc1ccccc1F)NCC1(N2CCCCC2)CCCCC1 | 4 | 10 | 6.6 | -2 | 2.7 | . | i | 0 | . | .
CCC(=O)NCc1ccc2[nH]c(C)cc2c1 | 21 | 21 | 4.9 | -18 | -0.4 | 6 | i | -4 | -7 | -4.2
COc1cc(C(=O)N2CCN(Cc3ccccn3)CC2)cc(OC)c1OC | 3 | 1 | 2.9 | 1 | -4.9 | . | i | -11 | -1 | 3.9
NCCOc1ccc(C23CC4CC(CC(C4)C2)C3)cc1 | . | . | . | -20 | 14 | -12 | i | 24 | -18 | 4.3
CCn1c(SCC(=O)Nc2ccc(N3CCOCC3)cc2)nnc1-c1ccc(OC)cc1 | 8 | 3 | -5.2 | -1 | 9.5 | -1 | i | -4 | -1 | 1.6
COc1cc(-c2nnc3sc(Cc4ccc(Cl)cc4)nn23)cc(OC)c1OC | 0 | -3 | 14 | . | 10.0 | 2 | i | 27 | 25 | 4.1
CCN(Cc1ccccc1)C(=O)c1cccc(S(=O)(=O)N2CCN(c3ccc(F)cc3)CC2)c1 | -4 | -6 | 4.8 | -1 | -3.5 | 1 | i | 13 | 12 | 0.1
COCCn1c(C)cc(C(=O)COC(=O)C2CC(=O)N(CCc3ccc(OC)c(OC)c3)C2)c1C (stereo not drawn) | 1 | 0 | -0.6 | 2 | 2.2 | 4 | i | -1 | 3 | -3.3
CC1CN(Cc2cc(=O)n3ccsc3n2)CC(C)O1 (stereo not drawn) | . | . | . | -14 | . | 17 | . | -5 | 2 | 1.1
COc1cc(/C(C)=N/NC(=S)NC(C)C)cc(OC)c1OC | . | . | . | . | 5.1 | 4 | i | 1 | -6 | 7.9
Cc1c(N2C(=O)/C(=C\c3ccccc3O)SC2=S)c(=O)n(-c2ccccc2)n1C | 5 | 3 | -5.3 | 15 | -11 | 2 | i | -18 | -7 | 4.1
O=C(Cc1ccc(Br)cc1)NCCc1ccc(F)cc1 | -7 | -5 | 5.5 | -2 | -1.2 | 44 | i | -1 | -9 | 3.3
O=C(Nc1nc2c(s1)CCCC2)c1cccnc1 | 10 | 8 | 1.5 | 3 | 3.6 | 16 | i | 6 | -45 | 1.0
O=C(NCc1ccccc1)c1ccc(S(=O)(=O)N2CCCc3ccccc32)cc1 | . | . | . | -3 | . | 15 | . | 4 | 2 | 2.1
CN(C)c1ccc(CN(Cc2ccco2)C(=O)c2ccco2)cc1 | -8 | -11 | -5.2 | 99* | 16 | -31 | i | 1 | 38 | 4.8
COC(=O)c1sc(S(=O)(=O)N2CCN(c3ccccc3F)CC2)c(C(=O)OC)c1C | 6 | 11 | 0.1 | -1 | 2.4 | . | i | -3 | . | .
Cc1ccc(NC(=O)c2cnccn2)nc1 | 1 | 4 | 2.7 | -7 | 1.2 | -7 | i | 4 | -15 | -1.6
SMILES | Ecoli rRNA inh | Ecoli rRNA inh OD600 | Ecoli rRNA inh RFP | ALR inh | MLL AF4-AF9 inh | Calb FLC | FGF22 binding | Beta cell apopt | T cruzi inh | RanGTP-Impb inh
COc1ccc(NC(=O)c2sc3ncn(CC(=O)N4CCCCC4)c(=O)c3c2C)cc1OC | -4 | 3 | -0.9 | -9 | 0.8 | -2 | i | 9 | -5 | 0.0
O=C(c1ccc(Cl)cc1)c1cnc(Nc2ccccc2Cl)s1 | . | . | . | -9 | . | 58 | . | 3 | 21 | 1.1
CCOC(=O)c1csc(NC(=O)COc2ccc(Cl)cc2Cl)n1 | . | . | . | -1 | . | -5 | . | -6 | -3 | 2.9
Cn1nc(C(=O)Nc2ccc(S(=O)(=O)N3CCCC3)cc2)ccc1=O | . | . | . | -6 | . | -3 | . | 1 | 2 | -3.2
COc1cc(NC(=O)CCc2c(C)nn(-c3ccc(N4CCOCC4)nn3)c2C)cc(OC)c1OC | 3 | 9 | -1.0 | -2 | 0.8 | -11 | i | . | 8 | 4.1
Cc1cc(C(=O)COC(=O)c2ccc(Br)o2)c(C)n1Cc1ccco1 | -24 | -22 | -3.8 | 0 | 6.8 | 10 | . | 1 | -8 | 2.2
